VCAM-1 up imaging – enhancers of VCAM-1 display on endothelial cells, imaging, high-content imaging, pooled HUVEC, TNFa stimulus (AID 457) | Pooled HUVEC, TNFa-induced VCAM-1 immunofluorescence imaging; hits of this screen are not shown here | calls only | 0.2% of 10,000 active;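 active = a top-ranked rise in VCAM-1 staining upheld on image or statistical review; inactive = the rest, including candidates rejected on review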;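 note: compounds tested at 5 µM in the well; cells exposed to compound for 24 hours before fixing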
VCAM-1 down – inhibitors of TNFa-induced VCAM-1 surface display, cell-based, plate reader, pooled HUVEC, TNFa stimulus (AID 454). 0.2% of 10,000 active. HUVEC TNFa-induced VCAM-1 surface immunofluorescence, plate reader; numbers were filed only for top-ranked candidate wells. inhibition, % at 5 µM;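 active = compound among top-ranked inhibitors of TNF-induced VCAM-1 adhesion protein staining, with the hit upheld by image or statistical review; inactive = the rest, including hits rejected on review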;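 note: 0% = TNFa with vehicle and 100% = cells without TNFa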
FPRL1 ligand – human FPRL1 ligands by binding competition, primary screen, cell-based, FPR counter-screen, flow cytometry; AID 441, 2006; 0.3% of 24,000 active; inhibition, %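 (tested at 6.7 µM)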; FPRL1-expressing cells, fluorescent ligand binding inhibition;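 note: 0% = buffer alone and 100% = receptor blocker peptide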
Target sequence (P25090 whole entry, looked up): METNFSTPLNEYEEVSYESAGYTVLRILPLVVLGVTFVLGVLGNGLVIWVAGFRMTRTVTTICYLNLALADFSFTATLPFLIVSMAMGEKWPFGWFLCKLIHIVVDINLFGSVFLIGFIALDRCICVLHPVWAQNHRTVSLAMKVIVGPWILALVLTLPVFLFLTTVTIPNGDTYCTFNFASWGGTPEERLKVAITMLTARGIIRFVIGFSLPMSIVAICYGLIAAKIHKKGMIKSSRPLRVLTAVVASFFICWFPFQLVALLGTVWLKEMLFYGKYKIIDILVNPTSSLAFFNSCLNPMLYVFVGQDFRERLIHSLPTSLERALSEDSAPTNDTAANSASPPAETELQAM
FPR ligand – human FPR ligands by binding competition, primary screen, cell-based, FPRL1 counter-screen, flow cytometry. fMet-Leu-Phe receptor (Homo sapiens), P21462. FPR-expressing cells, fluorescent ligand binding. inhibition, %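 (tested at 6.7 µM)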. 0.74% of 24,000 active;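 note: 0% = buffer wells and 100% = receptor blocker peptide wells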
Target sequence (P21462 whole entry, looked up): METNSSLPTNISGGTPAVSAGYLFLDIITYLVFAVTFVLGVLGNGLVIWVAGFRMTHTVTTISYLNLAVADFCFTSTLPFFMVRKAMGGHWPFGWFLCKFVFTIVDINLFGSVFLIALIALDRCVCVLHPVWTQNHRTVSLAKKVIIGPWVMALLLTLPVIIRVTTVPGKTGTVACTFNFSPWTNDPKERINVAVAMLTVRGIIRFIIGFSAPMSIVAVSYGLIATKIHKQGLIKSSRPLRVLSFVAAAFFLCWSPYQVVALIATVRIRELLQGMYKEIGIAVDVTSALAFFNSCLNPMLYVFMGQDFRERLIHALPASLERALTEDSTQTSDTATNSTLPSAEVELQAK
VCAM-1 down imaging – inhibitors of TNFa-induced VCAM-1 surface display, imaging, high-content imaging, pooled HUVEC, TNFa stimulus (AID 456) | HUVEC TNFa-induced VCAM-1 surface expression, immunofluorescence imaging; numbers were filed only for top-ranked candidate wells | inhibition, % at 5 µM, or IC50 in µM where a hit was titrated | 0.2% of 10,000 active;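 active = top tenth filtered wells with inhibition above zero that passed visual or statistical confirmation; inactive = the rest, including hits rejected on review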;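 note: 0% = stimulated vehicle wells and 100% = unstimulated cells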
Active calls of the source: *; i = inactive; x = no result given.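 Rule for the calls, unless noted: active = mean above 30%; inconclusive = self-fluorescent; inactive = the rest.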 The list is partial; the hit share may differ from the screen's.

SMILES	VCAM-1 up imaging	VCAM-1 down	FPRL1 ligand	FPR ligand	VCAM-1 down imaging
Cc1ccnc(NC(=O)C2CCC(CNc3c(N4CCCC4)c(=O)c3=O)CC2)c1 (stereo not drawn)	i	i	2	-3	i
Cn1c(SCC(=O)Nc2cccc(F)c2)nnc1-c1cccnc1	x	x	13	5	x
Cc1ccc(-c2nn3c(=O)c(C)nnc3s2)cc1	i	i	7	-5	i
COCCNC(=O)CCn1c(=O)oc2ccccc21	x	x	-1	-7	x
CC(=O)Nc1ccc(S(=O)(=O)N2CCN(c3cccc(C)c3C)CC2)cc1	x	x	-8	-1	x
Cc1ccc(C2/C(=C(/O)c3ccc(Br)cc3)C(=O)C(=O)N2Cc2ccco2)o1 (stereo not drawn)	x	x	-2	31*	x
Cc1cccc2sc(NC(=O)CNS(=O)(=O)c3ccc(Br)s3)nc12	x	x	-1	-4	x
CCOc1ccc(S(=O)(=O)n2ccc(C)n2)c2ccccc12	x	x	5	-1	x
CC1(C)CC(=O)C(C=NCc2ccc3c(c2)OCO3)=C(O)C1	i	i	0	1	i
Cc1cc(N2C(=O)C(O)=C(C(=O)c3cccs3)C2c2cccc(O)c2)no1 (stereo not drawn)	x	x	0	17	x
CC1(C)Cc2cccc(OCC(=O)O)c2O1	i	i	3	4	i
Nn1c(SCC(=O)Nc2ccc3c(c2)OCO3)nnc1C1CC1	i	i	0	-2	i
COc1ccc(N2CCN(Cc3nc4c(c(=O)[nH]c(=O)n4C)n3CC(C)=O)CC2)cc1	i	i	-5	-2	i
O=C(CN1CCN(Cc2ccccc2Cl)C1=O)NC1CCCCCCC1	x	x	-3	1	x
CCOc1ccc(N(CC(=O)NCc2cccs2)S(=O)(=O)c2c(C)noc2C)cc1	x	x	2	0	x
NC(=O)C1CCN(C(=O)c2cc3n(n2)C(C(F)(F)F)CC(c2ccco2)N3)CC1 (stereo not drawn)	i	i	2	4	i
COc1ccc(N2CCN(CCNC(=O)C3CC(=O)N(C4CCCC4)C3)CC2)cc1 (stereo not drawn)	x	x	6	-5	x
O=S(=O)(NCc1ccc(Cl)cc1)c1cnc[nH]1	i	i	2	0	i
COc1ccc(-c2cc(C(=O)N(C)Cc3ccccc3)no2)cc1OC	x	x	-2	-3	x
COc1ccc(/C(O)=C2/C(=O)C(=O)N(Cc3cccnc3)C2c2ccccn2)cc1 (stereo not drawn)	x	x	-2	3	x
CCCS(=O)(=O)N1CCCC(C(=O)NCCCN(CC)c2cccc(C)c2)C1 (stereo not drawn)	x	x	-7	-4	x
Cc1cc(NC(=O)C23CCC(C)(C(=O)O2)C3(C)C)no1 (stereo not drawn)	i	i	0	-3	i
COc1ccc(-c2n[nH]c(C)c2-c2ccc(Cl)cc2)c(O)c1OC	i	i	-2	5	i
O=C(c1ccccc1)c1c[nH]c2cc3c(cc2c1=O)OCO3	x	x	1	-2	x
Cc1ccc(C)c(N2CCN(C(=O)CCCCn3c(=O)[nH]c4ccccc4c3=O)CC2)c1	x	x	-2	9	x
Cc1cnc(NC(=O)C2=C(O)c3ccccc3S(=O)(=O)N2C)s1	i	i	10	0	i
COc1ccc(NC(=O)CSc2nnc(Cn3c(=O)sc4ccccc43)n2C)cc1OC	x	x	-3	1	x
O=C(Cn1cnc2ccccc2c1=O)NCCC(=O)N1CCN(c2ccccc2)CC1	i	i	0	2	i
COc1ccc(OC)c(CNC(=O)CCN2C(=O)COc3ccccc32)c1	i	i	0	-5	i
Cc1cc(NC(=O)CSc2nc3c(c(=O)n2Cc2ccccc2)SC(C)C3)no1 (stereo not drawn)	i	i	3	-3	i
Cc1ccc(S(=O)(=O)N2CCC(C(=O)N[C@@H](Cc3ccccc3)C(=O)O)CC2)cc1	i	i	6	-6	i
C=CCn1c(SCC(=O)c2cccs2)nnc1-c1cccc(OC)c1	x	x	4	7	x
O=C(OCC(=O)c1ccc[nH]1)c1ccc(S(=O)(=O)N2CCCCC2)cc1	i	i	2	-5	i
CC(Oc1ccc2oc(-c3ccccc3)c(C(=O)O)c2c1)C(=O)O (stereo not drawn)	i	i	-1	-1	i
Cc1cccn2cc(CNC(=O)C3CCCCC3)nc12	x	x	-2	-2	x
CC(C)N1C(=O)CCC1C(=O)N1CCCc2ccccc21 (stereo not drawn)	x	x	0	-15	x
CCOc1ccc(OCC(=O)c2c(O)c3ccccc3oc2=O)cc1	x	x	6	0	x
COc1ccc(-c2noc(-c3cc(C)cc(C)c3)n2)cc1OC	x	x	-2	1	x
COc1ccc(N=C2SC(C(=O)Nc3ccc4c(c3)OCO4)CC(=O)N2C)cc1 (stereo not drawn)	x	x	1	1	x
O=C(NCCN1CCN(c2cccc(Cl)c2)CC1)C1CCCN(S(=O)(=O)c2cnc[nH]2)C1 (stereo not drawn)	x	x	0	-4	x

As a short view, 18 of the compounds above.
SMILES	VCAM-1 up imaging	VCAM-1 down	FPRL1 ligand	FPR ligand	VCAM-1 down imaging
COc1ccc(-c2cc(C(=O)N(C)Cc3ccccc3)no2)cc1OC	x	x	-2	-3	x
COc1ccc(/C(O)=C2/C(=O)C(=O)N(Cc3cccnc3)C2c2ccccn2)cc1 (stereo not drawn)	x	x	-2	3	x
CCCS(=O)(=O)N1CCCC(C(=O)NCCCN(CC)c2cccc(C)c2)C1 (stereo not drawn)	x	x	-7	-4	x
Cc1cc(NC(=O)C23CCC(C)(C(=O)O2)C3(C)C)no1 (stereo not drawn)	i	i	0	-3	i
COc1ccc(-c2n[nH]c(C)c2-c2ccc(Cl)cc2)c(O)c1OC	i	i	-2	5	i
O=C(c1ccccc1)c1c[nH]c2cc3c(cc2c1=O)OCO3	x	x	1	-2	x
Cc1ccc(C)c(N2CCN(C(=O)CCCCn3c(=O)[nH]c4ccccc4c3=O)CC2)c1	x	x	-2	9	x
Cc1cnc(NC(=O)C2=C(O)c3ccccc3S(=O)(=O)N2C)s1	i	i	10	0	i
COc1ccc(NC(=O)CSc2nnc(Cn3c(=O)sc4ccccc43)n2C)cc1OC	x	x	-3	1	x
O=C(Cn1cnc2ccccc2c1=O)NCCC(=O)N1CCN(c2ccccc2)CC1	i	i	0	2	i
COc1ccc(OC)c(CNC(=O)CCN2C(=O)COc3ccccc32)c1	i	i	0	-5	i
Cc1cc(NC(=O)CSc2nc3c(c(=O)n2Cc2ccccc2)SC(C)C3)no1 (stereo not drawn)	i	i	3	-3	i
Cc1ccc(S(=O)(=O)N2CCC(C(=O)N[C@@H](Cc3ccccc3)C(=O)O)CC2)cc1	i	i	6	-6	i
C=CCn1c(SCC(=O)c2cccs2)nnc1-c1cccc(OC)c1	x	x	4	7	x
O=C(OCC(=O)c1ccc[nH]1)c1ccc(S(=O)(=O)N2CCCCC2)cc1	i	i	2	-5	i
CC(Oc1ccc2oc(-c3ccccc3)c(C(=O)O)c2c1)C(=O)O (stereo not drawn)	i	i	-1	-1	i
Cc1cccn2cc(CNC(=O)C3CCCCC3)nc12	x	x	-2	-2	x
CC(C)N1C(=O)CCC1C(=O)N1CCCc2ccccc21 (stereo not drawn)	x	x	0	-15	x

Additional structures.
SMILES	VCAM-1 up imaging	VCAM-1 down	FPRL1 ligand	FPR ligand	VCAM-1 down imaging
CC(C)(C)c1cn(-c2ccccc2)c(=S)[nH]1	x	x	4	9	x
COc1ccc(NC(=O)NCc2cccn2C)c(OC)c1	x	x	0	4	x
N/C(=N/O)c1nc(N2CCCC2)nc(N(c2ccccc2)c2ccccc2)n1	i	i	-3	5	i
CC(=O)c1ccc(OCC(O)CN2CCCC(C)C2)cc1 (stereo not drawn)	x	x	0	-3	x
CCOC(=O)Cc1c(C)nc2c(-c3ccccc3)c(C)[nH]n2c1=O	x	x	6	-15	x
Cc1nc2c(nnn2Cc2ccccc2)c(=O)n1-c1ccccc1	x	x	-6	-5	x
CCOC(=O)C(C)NC(=O)C(NC(=O)C1CCC(CC)CC1)C(C)C (stereo not drawn)	x	x	-10	-1	x
CCOC(=O)c1cccc(NC(=O)CCc2c(C)nc3ncnn3c2C)c1	x	x	3	-9	x
Cc1oc2cc(O)cc(O)c2c(=O)c1-c1ccc2c(c1)OCCCO2	x	x	23	31*	x
Cc1cc(C)c2c(CC(=O)NCc3ccco3)coc2c1	i	i	-13	4	i
CCOC(=O)c1[nH]c(C)c(C(=O)Nc2ccc(C)c(C)c2)c1C	x	x	-1	2	x
COc1nc(N(C#N)CC(N)=O)nc(N2CCCC2)n1	x	x	-2	-1	x
CC(C)(C)NC(=O)CSc1nnnn1C(C)(C)C	x	x	8	5	x
COc1ccc(Cl)cc1N1CCN(CCNC(=O)Nc2ccccc2C)CC1	i	79	-1	14	74%
Cc1oc(-c2cccc(Cl)c2)nc1CN1CCC(C(=O)N2CCN(c3ccccn3)CC2)CC1	x	x	9	10	x
CCCCN(CCCNC(=O)C1CCCN(S(=O)(=O)CC)C1)Cc1ccccc1 (stereo not drawn)	x	x	1	5	x
CCOc1ccc(C2C(C(=O)OC)=CN(CCOC)C=C2C(=O)OC)cc1	i	i	13	2	i
COc1cc(C(=O)NCCC(=O)NCCCN2CCCCC2C)cc(OC)c1OC (stereo not drawn)	x	x	-2	-18	x
COc1ccc(Cl)cc1N1CC(c2nc3ccccc3[nH]2)CC1=O (stereo not drawn)	i	i	-3	6	i
O=S(=O)(c1ccc(OCC(O)CN2CCC(Cc3ccccc3)CC2)cc1)N1CCOCC1 (stereo not drawn)	i	i	4	-4	i
COc1ccc(Br)cc1C1CC(=O)N2CN(Cc3ccccc3)CSC2=C1C#N (stereo not drawn)	x	x	-3	-1	x
COc1ccc2[nH]c(=O)c(CN(C(=O)c3cccnc3)c3ccccc3OC)cc2c1	i	i	-2	-2	i
CCOC(=O)C1CCN(C(=O)Cc2c(C(=O)O)n(CC)c3ccccc23)CC1	x	x	2	2	x
COC(=O)Cn1c(CN2CCOCC2)nc2c1c(=O)n(C)c(=O)n2C	i	i	8	-3	i
CC(=O)NCCc1ccc(S(=O)(=O)NC2OC(=O)c3ccccc32)cc1 (stereo not drawn)	x	x	-5	5	x
O=C(NCC12CC3CC(C1)CC(CNC(=O)N1CCCC1)(C3)C2)N1CCCC1	i	i	4	7	i
O=C1C(=O)N(CCCN2CCOCC2)C(c2cccs2)/C1=C(/O)c1ccc2c(c1)OCO2 (stereo not drawn)	x	x	2	3	x
COC(=O)c1ccccc1NC(=O)C1CC(=O)N(c2ccc(F)cc2)C1 (stereo not drawn)	i	i	-4	-3	i
O=C(Cn1c(=O)n(Cc2ccco2)c(=O)c2ccccc21)NCC1CCCO1 (stereo not drawn)	x	x	2	6	x
O=C(Cn1cccc1)Nc1ccc(OC(F)(F)F)cc1	x	x	-1	2	x
O=C1CCC(=O)N1OCCCOc1ccc(Br)cc1Cl	i	i	-7	-1	i
CC(=O)N1c2ccccc2C(=O)OC1c1cccnc1 (stereo not drawn)	x	x	3	-6	x
Cc1c(C(=O)NCCCN2CCOCC2)sc2ncnc(N3CCN(c4ccccc4)CC3)c12	x	x	1	-5	x
Cc1cccc(N2CCN(C(=O)C3CCN(S(=O)(=O)c4cccc5cccnc45)CC3)CC2C)c1 (stereo not drawn)	x	x	10	5	x
Cc1ccccc1NCc1ccccc1O	x	x	-3	-8	x
CC(NC(=O)C1CCN(c2nnc(-n3cccc3)s2)CC1)C12CC3CC(CC(C3)C1)C2 (stereo not drawn)	x	x	-4	1	x
O=C(Nc1cccc(NC(=O)c2ccc(Br)o2)n1)c1ccc(Br)o1	x	x	-2	-7	x
